Screening data from PubChem.
CtBP-E1A inh: inhibitors of CtBP/E1A interaction; AlphaScreen GST-E1A/His-CtBP binding, 1536-well; hits give low values; control for the full effect not named in the record; activity change, % (test concentration not listed); 0.49% of 340,000 active; AID 651724; in the data active means activity change below about -65%; inconclusive means about -30% to -65%; inactive means above about -30%; further: on the % scale 0 is the no-effect control and ±100 the full control effect; compound concentration not given in the record
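Steps: dispense buffer (Tris pH 8.0, NaCl 300 mM, TCEP 1 mM, BSA, Tween 20); add 5X protein mix (GST-E1A, His-CtBP, 125 nM each); pin 23 nL compound; 2 h at 37 °C, dark; add 5X beads (50 ug/mL); 1 h; read.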
PINK1 expr mod: changes PINK1 expression; PINK1 immunofluorescence, high-content cytometry, 24 h; Potency, µM (series often up to 76.6 µM), without a hit: at the top dose activation (PINK1 increase), most hits filed as activators; 0.2% of 410,000 active; AID 624263; active = well fitted activation curve with a large enough effect; inconclusive = small, poorly fitted or top-dose-only effect; inactive = flat fitted curve, though single readings scatter; cell line not stated here;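 further: potency means the concentration at half of the fitted maximal effect; % of control where 0% means no effect; nearly all actives have a fitted effect of over 65% in size; a mitochondrial uncoupler was the plate control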
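Cells are seeded, rested 12 hours, then given compound at five concentrations or DMSO for 24 hours. After fixation, blocking and antibody staining, PINK1 amount and mitochondrial localization are scored; CCCP serves as control.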
Six1-Eya2 inh: blocks human Six1 binding to Eya2; Q15475+O00167; AlphaScreen GST-Six1/His-Eya2 binding, biochemical; hits give low values; control for the full effect not named in the record; activity change, % (test concentration not listed); 0.56% of 360,000 active; in the data active = activity change below about -65%; inconclusive = about -30% to -65%; inactive = above about -30%; further: on the % scale 0 is the no-effect control and ±100 the full control effect; compound concentration not given in the record
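GST-Six1 + His-Eya2 (5X stock: 250/500 nM); Tris pH 8.0, 300 mM NaCl, 0.05% BSA, 0.02% Tween 20; GSH donor/Ni acceptor beads; 1 h 37 °C dark; AlphaScreen readout.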
D2 ag: human D2 receptor agonism in beta-arrestin assay | P14416 | DiscoveRx PathHunter D2 beta-arrestin, luminescence, 90 min; 100% = 57 uM dopamine signal | activation, % (concentration not given with the values) | 0.084% of 360,000 active | AID 624465; in the data active = activation above about 40%; inconclusive = about 15% to 40%; inactive = below about 15%; further: compound concentration not given in the record; the text of the record calls up to 30% inactive
Target sequence (P14416 whole entry, looked up): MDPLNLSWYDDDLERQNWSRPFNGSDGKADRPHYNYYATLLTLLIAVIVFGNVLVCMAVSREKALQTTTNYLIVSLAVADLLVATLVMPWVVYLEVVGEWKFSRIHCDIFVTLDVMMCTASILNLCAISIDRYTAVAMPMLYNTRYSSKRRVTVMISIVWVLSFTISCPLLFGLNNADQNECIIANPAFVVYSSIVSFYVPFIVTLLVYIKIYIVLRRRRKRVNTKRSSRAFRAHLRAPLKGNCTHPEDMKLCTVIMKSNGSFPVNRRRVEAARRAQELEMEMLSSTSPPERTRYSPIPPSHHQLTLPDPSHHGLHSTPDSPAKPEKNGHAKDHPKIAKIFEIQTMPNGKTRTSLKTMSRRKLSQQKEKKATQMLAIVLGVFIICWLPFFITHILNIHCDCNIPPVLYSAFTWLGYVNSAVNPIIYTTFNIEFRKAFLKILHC
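DiscoveRx PathHunter D2 beta-arrestin cells (2,100/well) attached overnight, then compound-stimulated 90 min at 37 C in HBSS/10 mM HEPES/0.1% Tween-20 buffer; beta-galactosidase complementation read by luminescence after 1 h at ambient temperature. Dopamine 57 uM final (EC100) as control.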
TRPML1 ag: activates the human TRPML1 channel; Q9GZU1; TRPML1-expressing cells, Ca2+ dye fluorescence, FDSS; host cell line not named in the record; reference of the full effect not given here; activation, % (concentration not given with the values); 0.12% of 410,000 active; AID 624414; in the data active = activation above about 50%; inconclusive = about 30% to 50%; inactive = below about 30%; further: 0% is about no effect; the text of the record puts the active cut at 80%
Target sequence (Q9GZU1 whole entry, looked up): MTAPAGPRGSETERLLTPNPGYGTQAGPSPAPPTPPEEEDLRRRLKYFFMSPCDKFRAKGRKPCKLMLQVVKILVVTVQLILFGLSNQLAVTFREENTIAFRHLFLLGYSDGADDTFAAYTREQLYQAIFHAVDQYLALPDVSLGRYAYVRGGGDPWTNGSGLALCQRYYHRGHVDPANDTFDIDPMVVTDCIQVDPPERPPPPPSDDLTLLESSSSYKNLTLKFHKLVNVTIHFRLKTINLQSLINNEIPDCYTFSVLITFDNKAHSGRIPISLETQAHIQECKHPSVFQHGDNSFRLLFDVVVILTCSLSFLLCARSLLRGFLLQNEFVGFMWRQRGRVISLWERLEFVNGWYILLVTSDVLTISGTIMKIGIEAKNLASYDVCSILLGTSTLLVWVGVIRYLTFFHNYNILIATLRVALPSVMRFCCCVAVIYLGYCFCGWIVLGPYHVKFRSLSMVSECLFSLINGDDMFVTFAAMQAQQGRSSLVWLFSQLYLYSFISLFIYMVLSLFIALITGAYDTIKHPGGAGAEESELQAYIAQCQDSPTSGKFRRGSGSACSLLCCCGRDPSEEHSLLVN
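In this qHTS format, compounds were pin-transferred onto Ca8-dye-loaded TRPML1-DL cells induced with Tet overnight, and intracellular Ca2+ fluorescence was recorded kinetically for 110 s after a 10 s baseline. A subsequent 4uM final 54-4 (EC80) addition followed by a second 110 s read served as the antagonist phase.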
D2 potentiator: potentiates the human D2 dopamine receptor allosterically; 0.23% of 360,000 active; DiscoveRx D2 beta-arrestin cells, luminescence, 90 min; 100% = 57 uM dopamine signal; potentiation, % (no concentration beside the values); AID 624464; P14416; active = potentiation of 50% or more; inconclusive = 30% to 50%; inactive = 30% or less;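 further: compound concentration not given in the record; tested on top of an EC20 dose of dopamine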
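D2 cells co-treated with compound plus 50 nM dopamine (EC20) for 90 min at 37 deg C to detect potentiation. Beta-arrestin recruitment was read as enzyme-fragment luminescence after 1 h at ambient temperature. Full response was set by 57 uM dopamine.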
The depositor's hits bear a star; u = inconclusive; x = no result given; [ ] = another dose, or the depositor's remark.

Preview:
Values run as follows: CtBP-E1A inh	D2 potentiator	TRPML1 ag	D2 ag	Six1-Eya2 inh	PINK1 expr mod
1: Cc1ccc(C(C#N)c2ccc(Cl)nn2)cc1 (configuration not stated)
 : 15	-14	0.0	1.6	7	-1.1%
2: CCc1ccc(OCC(O)CN2CCCC2)cc1 (configuration not stated)
 : 7	-5	0.1	-0.8	2	0.0%

Results (from the top)
Values run as follows: CtBP-E1A inh	D2 potentiator	TRPML1 ag	D2 ag	Six1-Eya2 inh	PINK1 expr mod
1: Cc1ccc(C(C#N)c2ccc(Cl)nn2)cc1 (configuration not stated)
 : 15	-14	0.0	1.6	7	-1.1%
2: CCc1ccc(OCC(O)CN2CCCC2)cc1 (configuration not stated)
 : 7	-5	0.1	-0.8	2	0.0%
3: CCCOc1ccc(C2C(C(=O)/C=C/c3ccco3)=C(O)C(=O)N2CCN2CCOCC2)cc1OC (configuration not stated)
 : -8	9	-0.4	7.5	-1	1.1%
4: N#CCCn1cc(/C=N/NC(=O)c2ccncc2)c(-c2ccccc2)n1
 : 1	3	0.9	-1.3	-2	u
5: O=C1c2sc3nc4c(c(=O)n3c2C(=O)N1c1ccccc1)CCC4
 : -13	-15	-0.7	-2.7	-28	2.5%
6: COc1ccc(NC(=O)n2ncc3c(C)cccc32)cc1OC
 : x	2	0.1	-1.6	-11	0.5%
7: COc1ccc(-c2nc(CSCC(=O)NC3CCN(Cc4ccccc4)CC3)c(C)o2)cc1OC
 : x	-16	2.9	-7.4	-4	-2.3%
8: CC(C)(C)c1ccc(C(=O)Nc2ccc(O)c3c(=O)cc(-c4cccc(Cl)c4)oc23)cc1
 : 5	-8	-0.2	-3.0	1	6.3%
9: O=S1(=O)CC(O)C(Nc2ccc(Cl)cc2)C1 (configuration not stated)
 : -14	-1	-0.5	3.3	6	0.1%
10: CC(C)C(=O)Nc1ccc(C(=O)c2ccccc2)cc1
 : 1	-11	-0.3	-1.5	-2	4.4%[38.3 µM]
11: CC(C)CCCNc1nc(N2CCOCC2)nc(N2CCOCC2)n1
 : -3	-8	-1.5	-6.5	4	1.1%
12: Clc1ccc(Cn2cnc3ccccc32)cc1
 : 7	5	0.8	0.7	3	1.1%
13: CC(=O)Nc1ccc(Oc2cncc(Cl)c2)nc1
 : 11	-6	-0.8	-4.1	1	0.7%
14: O=C(Nc1cccc(C(F)(F)F)c1)Oc1ccccc1N1CCOCC1
 : -10	-1	0.7	1.8	-1	0.8%
15: N#CN(CC(N)=O)c1nc(N2CCCCC2)nc(N2CCCCC2)n1
 : 10	-5	0.4	-14	0	7.6%
16: Cc1cccc(N=C2NN=C(c3ccccc3F)CS2)c1C
 : -25	-16	-0.3	-1.4	-28	1.0%
17: CCSC1=C(C#N)C(c2ccccc2C)CC(=O)N1 (configuration not stated)
 : 12	-3	1.0	-1.3	7	u
18: CN(C)C(=O)Cn1c(SCC(=O)N2CCCc3ccccc32)nc2ccccc21
 : 6	-25	-0.3	-3.5	-1	0.4%[38.3 µM]
19: O=C(c1cn(CC(=O)N2CCCCC2)c2ccccc12)C1CC1
 : -1	-3	0.0	-3.0	-2	0.5%
20: Cc1ccc(S(=O)(=O)N2CCCC2C(=O)NCc2ccccc2Cl)cc1 (configuration not stated)
 : 5	1	0.2	u	6	0.8%
21: CNC(=S)NNC(=O)c1ccccc1Br
 : -24	-11	-0.2	-11	-10	1.7%
22: O=C(Cn1c(=O)oc2cc(S(=O)(=O)N3CCCCC3)ccc21)N1CCCCC1
 : x	-2	0.1	2.6	7	1.6%
23: O=c1[nH]cc(COCc2ccccc2)c(=O)[nH]1
 : 3	1	0.5	1.6	0	4.6%[38.3 µM]
24: CNCc1c(OCc2ccccc2)ccc2ccccc12
 : -1	-10	0.5	-2.9	-6	9.4%
25: Nc1nonc1-n1nnc(C(=O)N/N=C/c2ccc(F)cc2)c1-c1ccc2c(c1)OCO2
 : 9	-3	0.5	-5.1	4	5.0%
26: CCCCn1c(/N=C/c2ccc3c(c2)OCO3)nc2ccccc21
 : 5	-7	0.6	-1.1	5	-1.7%[38.3 µM]
27: O=C(CN1CCC(C(=O)c2ccc(F)cc2)CC1)Nc1ccccc1Cl
 : 10	-18	0.1	-0.5	-1	1.5%
28: O=C(Oc1ccccc1N1C(=O)C2CCCCC2C1=O)c1ccccc1 (configuration not stated)
 : 5	-9	-0.5	-3.9	11	1.0%
29: O=C(Nc1ccc(S(=O)(=O)N2CCOCC2)cc1)c1cccc([N+](=O)[O-])c1
 : 0	-31	-1.1	-3.1	10	1.1%
30: CSc1ccccc1NC(=O)c1cc(C(C)C)on1
 : 21	5	3.1	-2.7	11	-1.5%
31: CCOC(=O)C1=C(C)NC(SCc2cc(=O)[nH][nH]2)=C(C#N)C1c1cccs1 (configuration not stated)
 : -4	11	0.4	-0.9	-5	x
32: CC(C)C(OC(=O)c1cccs1)C(=O)NCc1ccc(F)cc1 (configuration not stated)
 : -4	-7	2.9	-3.4	1	0.4%
33: CC(=O)c1cccc(NC(=O)N2CCOCC2)c1
 : 9	-7	0.6	0.7	6	-0.9%
34: Cc1nc2c3cc(F)ccc3n(Cc3ccccc3F)c2s1
 : -11	-13	4.4	1.3	2	6.4%
35: COc1ccccc1CN(C)C(=O)c1cccc(S(=O)(=O)N2CCc3ccccc3C2)c1
 : -1	-1	1.7	-3.4	-11	0.3%
36: CC1(C)Cc2c(c(-c3ccccc3)nc(N3CCOCC3)c2C(N)=O)CO1
 : 1	-1	-0.3	0.3	7	-0.8%
37: CCCCN(C)CCNC(=O)C(NC(=O)C1CCC(C)CC1)C(C)C (configuration not stated)
 : 8	1	-0.3	-4.5	3	0.1%
38: NC(=O)C1CCN(C(=O)CN(c2ccc3c(c2)OCCO3)S(=O)(=O)c2ccccc2)CC1
 : -3	-14	0.4	-5.6	-14	1.0%
39: O=C(NNc1cccc(Cl)n1)C1CC1
 : -3	-5	0.1	-2.7	9	0.5%
40: COc1cc(C(=O)NC(C)c2ccc(-n3ccnc3)cc2)cc(OC)c1C (configuration not stated)
 : 20	-21	1.5	-2.7	-6	-1.0%
41: CN(C)/C=C(\C=O)c1c(Cl)cccc1Cl
 : x	-7	-0.7	-7.3	-4	0.4%
42: Cc1ccc(NC(=O)/C=C/c2ccco2)cc1S(=O)(=O)N1CCCCCC1
 : -14	-4	1.4	-1.7	-4	1.3%
43: COc1ccc(NC(=S)Nc2ccc(Oc3ccccc3)cc2)cc1
 : -14	-4	0.3	3.5	-11	4.0%
44: COc1ccc(-n2nc(C(=O)NCc3ccco3)c3c4ccccc4n(C)c3c2=O)cc1
 : x	-9	0.9	-3.5	4	8.1%
45: Cn1c(SCC(=O)c2ccccc2)ncc(C(=O)Nc2ccc(F)cc2)c1=O
 : 0	-14	0.0	6.1	7	3.0%
46: O=C(CSc1nnc(-c2ccncc2)o1)c1ccc2c(c1)OCCO2
 : 4	-9	1.1	1.3	-7	-2.3%
47: O=C(N/N=C/c1cc(Cl)cc([N+](=O)[O-])c1O)c1ccccc1NS(=O)(=O)c1cccs1
 : -1	-15	1.0	-6.8	-77*	2.8%
48: O=C(O)c1cc(-c2ccc3ccccc3c2)nc2ccc(F)cc12
 : 0	-2	0.8	0.8	2	-1.7%
49: CC(C)(C)N(Cc1ccccc1)C(=O)COC(=O)CNS(=O)(=O)c1ccc2ccccc2c1
 : 0	-4	3.3	-2.3	-9	1.4%
50: Fc1ccc(COc2ccc(-c3nnco3)cc2)cc1
 : 0	-4	0.3	1.9	2	1.2%
51: O=C(Nc1ccc(Cl)cc1)OCc1cn(-c2ccccc2)nn1
 : 5	-3	-0.3	-0.5	0	-0.5%
52: O=C(N/N=C1\CC(c2ccccc2)Oc2ccccc21)c1ccc(O)cc1 (configuration not stated)
 : -2	2	3.6	0.2	-3	-2.3%
53: CCOC(=O)c1[nH]c2ccc(Cl)cc2c1NC(=O)/C=C/c1ccc2c(c1)OCO2
 : 19	23	0.8	1.3	3	u
54: O=c1c(Br)c(Br)cnn1-c1ccccc1
 : 6	-4	0.3	1.1	17	-0.7%
55: Cc1ccc2c(CC(=O)OC(C)C(=O)Nc3ncc(Cl)cc3Cl)coc2c1 (configuration not stated)
 : 29	-16	0.4	-0.9	20	1.2%
56: COc1cccc(-c2nn(-c3ccccc3)cc2C(=O)OCC(=O)Nc2ncc(Cl)cc2Cl)c1
 : -5	-27	0.0	-0.4	-11	3.1%
57: COc1ccc(C(=O)Cn2c(N3CCCCC3)nc3c2c(=O)n(C)c(=O)n3C)cc1OC
 : -4	-1	x	-4.8	7	2.6%
58: CC1CCN(S(=O)(=O)c2ccc3c(c2)N(CC(=O)NCCCN(Cc2ccccc2)C(C)C)C(=O)CO3)CC1
 : -11	-14	0.4	1.5	5	-0.2%
59: O=C(NCc1cnn(-c2ccccc2)c1)C1CCC(=O)N(C2CC2)C1 (configuration not stated)
 : 2	-9	0.5	2.8	2	-0.6%
60: O=C(O)C1CC=CCC1C(=O)Nc1cccc(C(=O)N2CCCCC2)c1 (configuration not stated)
 : 8	5	0.2	-0.2	8	0.6%[38.3 µM]

Following part
Values run as follows: CtBP-E1A inh	D2 potentiator	TRPML1 ag	D2 ag	Six1-Eya2 inh	PINK1 expr mod
61: Cc1ccc2c(n1)CC(C)(C)C/C2=N\O
 : -16	-4	-0.9	-5.6	-15	-3.1%
62: COCCN(C(=O)CSc1nnc(-c2ccc(F)cc2)n1N)c1c(N)n(CC(C)C)c(=O)[nH]c1=O
 : 2	5	-1.0	1.0	0	-1.3%
63: CC(C)C(=O)Nc1ncc2c(n1)CC(c1cccs1)CC2=O (configuration not stated)
 : 1	-7	0.0	1.4	6	2.1%
64: COCCN1C(=O)N(c2cccc(OC)c2)C(=O)C1CC(=O)Nc1ccc(Cl)cc1 (configuration not stated)
 : -1	-12	1.6	-0.2	-13	-0.1%
65: CCOc1ccc(S(=O)(=O)N2CCOCC2)cc1NC(=O)C1=COCCO1
 : -9	23	-0.9	-2.8	0	1.9%
66: COc1ccc(CN(C)CC(=O)NC(=O)NCc2ccccc2)c(OC)c1
 : 5	-12	0.0	-2.4	16	1.5%
67: COCCOC(=O)c1[nH]c2c(c1C)C(=O)CC(c1ccc(F)cc1)C2 (configuration not stated)
 : 2	4	2.2	-2.5	1	10%
68: COc1c(Br)cc(C(N)=O)cc1OCc1ccccc1
 : x	-8	2.5	-2.2	-1	0.2%
69: Cc1c(C(=O)Nc2nnc(C3CC3)s2)oc2c(Cl)cccc12
 : 0	-35	1.2	-5.3	21	5.1%
70: CCN1C(=O)NC(c2ccccc2)C1=O (configuration not stated)
 : 8	-3	0.2	3.9	5	0.2%
71: O=C1c2ccccc2C(=O)N1c1ccc(Cl)cn1
 : -14	-16	1.2	-4.0	-6	-0.4%
72: O=[N+]([O-])c1cc([N+](=O)[O-])c2oc(-c3ccccc3)c(Br)c2c1O
 : -7	7	1.2	-0.5	-19	35µM*
73: CC(C(=O)Nc1ccccc1C#N)N1C(=O)NC2(CCCCCC2)C1=O (configuration not stated)
 : -8	-12	0.7	-2.6	6	-1.4%
74: Cc1nc2ccc(NC(=O)C3=NN(C)C(=O)CC3)cc2s1
 : 9	1	-0.3	0.3	0	0.5%
75: Cc1noc(C)c1NC(=O)N(C)C[C@H]1Oc2c(NC(=O)Nc3ccccc3)cccc2C(=O)N([C@H](C)CO)C[C@@H]1C
 : -11	-12	0.3	-2.4	7	0.7%
